Bioassay records as filed in PubChem BioAssay.
Env fusion inh – HIV envelope-mediated fusion inhibition; HeLa-JRFL Env/CEM21 cell fusion, luciferase; inhibition, % at 12.3 µM; 360,000 tested, 1.1% active;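 active = mean replicate inhibition score of at least 50 and every replicate individually at or above 50; inconclusive = only one of the two criteria met; inactive = mean below 50 and not all replicates reaching 50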;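 also: 0% = plate neutral controls and 100% = maraviroc near 300 nM; one replicate is shown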
eIF4H FP inh – inhibitors of RNA binding by human eIF4H | 290,000 tested, 0.94% active | Q15056 | inhibition, % at 35 µM | eIF4H fluorescence polarization binding assay | AID 2012;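 active = 50% or more with normal probe brightness, or confirmed in later tests; inconclusive = above 50% with abnormal brightness, or retests that disagree; inactive = below 50% or failed in later tests; about a fifth of its hits are not listed in these tables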;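 also: calls also rest on retests at 20 µM and on dose response follow-up; 0% = protein and probe with vehicle and 100% = probe without protein; strong numbers were not always called active; many hits fall short of the cut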
UUG fidelity – alters start codon recognition fidelity in yeast; AID 602363; 350,000 tested, 0.13% active; S. cerevisiae UUG-firefly luciferase reporter, luminescence/redox ratio; activity score, % at 18.7 µM;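 active = replicate mean at a twofold rise or more, about +100% in these data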;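 also: firefly luciferase made from a UUG start codon reports start codon fidelity; reporter light over untreated wells divided by growth signal over untreated wells; some hits fall short of that in this replicate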
CSC inhib – cancer stem cell inhibition; 300,000 tested, 1.1% active; AID 2717; cancer stem cell-like cells viability, luminescence; inhibition, % at 7.5 µM;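 active = mean at 75% or more and at least half the replicates too; inconclusive = mean and replicates disagree; tested in HMLE shEcad cells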;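 also: 0% = median of negative and 100% = median of positive control wells; the first replicate is given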
MT1-MMP act inh – inhibitors of human MT1-MMP activation. P50281. HT1080 RFP-PRO-GFP cells, GFP/RFP ratio fluorescence, overnight; percent of plate control window, DMSO zero. GFP/RFP ratio change, % at 20 µM. 360,000 tested, 0.061% active;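 active = GFP/RFP ratio change of at least 30% with cell ATP level not reduced by more than half and red fluorescence within 50% of control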; also: strong numbers were not always called active
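Assay system – RFP-PRO-GFP reporter HT1080 cells · Compound dosing – single dose of 20 µM compound, 1% DMSO final · Incubation – overnight compound exposure at 37 °C · Measure – GFP/RFP fluorescence ratio · Benchmarks – DMSO wells and RFP-L50D-GFP cells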
Rce1 inhib – inhibitors of yeast Ras-converting enzyme. yeast membranes, quenched prenylated peptide cleavage fluorescence. 290,000 tested, 0.27% active. Q03530. calls only;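 active = fall in fluorescence gain of 50% or more versus controls, with final raw signal at or below 3038400; inconclusive = same 50% fall but final raw signal above 3038400; inactive = fall in fluorescence gain under 50%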;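 also: plate controls were neutral control wells for no effect and wells lacking membranes for full effect; tested at 10 µM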
Target sequence (Q03530 whole entry, looked up): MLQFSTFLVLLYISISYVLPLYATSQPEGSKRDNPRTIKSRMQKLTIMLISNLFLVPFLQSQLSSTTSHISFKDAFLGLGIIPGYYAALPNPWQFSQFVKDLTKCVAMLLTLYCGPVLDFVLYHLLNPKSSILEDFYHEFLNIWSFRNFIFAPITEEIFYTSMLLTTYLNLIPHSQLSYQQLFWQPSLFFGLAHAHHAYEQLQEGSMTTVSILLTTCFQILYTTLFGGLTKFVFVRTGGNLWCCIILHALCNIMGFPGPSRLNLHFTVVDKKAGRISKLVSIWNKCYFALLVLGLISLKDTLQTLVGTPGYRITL
PABP polyA inh – blocks human PABP binding to poly(A) RNA | P11940 | fluorescence polarization | inhibition, % at 35 µM | 290,000 tested, 1% active;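 active = 50% or more with normal probe brightness, or confirmed in later tests; inconclusive = above 50% with abnormal brightness, or retests that disagree; inactive = below 50% or failed in later tests; about a fifth of its hits are not listed in these tables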;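 also: calls also rest on retests at 20 µM and on dose response follow-up; controls were probe without protein and protein plus probe with vehicle; some compounds called inactive have numbers as strong as hits; many hits fall short of the cut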
Target sequence (P11940 whole entry, looked up): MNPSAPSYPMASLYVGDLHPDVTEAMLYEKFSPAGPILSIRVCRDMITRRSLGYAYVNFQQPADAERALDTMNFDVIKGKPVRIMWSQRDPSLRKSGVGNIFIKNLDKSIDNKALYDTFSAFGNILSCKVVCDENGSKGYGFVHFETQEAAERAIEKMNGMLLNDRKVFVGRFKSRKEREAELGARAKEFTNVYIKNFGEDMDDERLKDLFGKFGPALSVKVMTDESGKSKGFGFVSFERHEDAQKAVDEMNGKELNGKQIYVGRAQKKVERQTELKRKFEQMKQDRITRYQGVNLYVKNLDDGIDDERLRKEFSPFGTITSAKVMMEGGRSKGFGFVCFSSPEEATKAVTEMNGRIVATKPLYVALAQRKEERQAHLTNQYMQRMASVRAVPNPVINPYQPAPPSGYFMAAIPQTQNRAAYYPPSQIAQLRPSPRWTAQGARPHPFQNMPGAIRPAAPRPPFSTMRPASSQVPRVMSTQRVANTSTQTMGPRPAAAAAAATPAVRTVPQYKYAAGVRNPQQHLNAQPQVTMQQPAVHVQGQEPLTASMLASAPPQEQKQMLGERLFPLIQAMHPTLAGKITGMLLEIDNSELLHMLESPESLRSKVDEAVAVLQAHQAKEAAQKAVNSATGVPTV
MT1-MMP act inh RFP – also measured in MT1-MMP act inh; calls as there; RFP signal change, %; measured here: RFP expression control read;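 0 = vehicle wells; hits needed this value within 50% of zero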
* marks the source's active call; other numbers are inactive results; i = inactive; ? = inconclusive; · = not tested or not shown.

Start of the data: the first three records, ahead of the listing:
Second line of a record: MT1-MMP act inh	MT1-MMP act inh RFP	Env fusion inh	UUG fidelity	eIF4H FP inh	Rce1 inhib	PABP polyA inh	CSC inhib
CCOC(=O)c1nn(C23CC4CC(CC(C4)C2)C3)c2c1C(=O)N(c1ccc(C)cc1)C2=O
    -1	4	·	·	-1	i	-4	-6
COCC(C)N1CCC(n2nccc2NC(=O)CCOc2ccccc2)CC1 (stereo not given)
    -6	1	·	0	26	·	8	-4
Cc1ccc(Nc2c([N+](=O)[O-])c(=O)n(C)c3ccccc23)cc1C
    -3	-7	·	-11	-7	i	-4	15

Main list, from the start:
Second line of a record: MT1-MMP act inh	MT1-MMP act inh RFP	Env fusion inh	UUG fidelity	eIF4H FP inh	Rce1 inhib	PABP polyA inh	CSC inhib
CCOC(=O)c1nn(C23CC4CC(CC(C4)C2)C3)c2c1C(=O)N(c1ccc(C)cc1)C2=O
    -1	4	·	·	-1	i	-4	-6
COCC(C)N1CCC(n2nccc2NC(=O)CCOc2ccccc2)CC1 (stereo not given)
    -6	1	·	0	26	·	8	-4
Cc1ccc(Nc2c([N+](=O)[O-])c(=O)n(C)c3ccccc23)cc1C
    -3	-7	·	-11	-7	i	-4	15
O=C(C[C@@H]1C/C=C\C[C@H](NC(=O)OCC2c3ccccc3-c3ccccc32)C(=O)O[C@H](c2ccccc2)CNC1=O)NCCO
    10	-5	-24	-14	·	·	·	2
CCOC(=O)C1=C(O)C(=O)N(c2ccccc2)C1c1cccc([N+](=O)[O-])c1 (stereo not given)
    8	-7	0	-9	-6	i	-6	-7
Cc1cccc(OCC(=O)NNC(=O)C2CCCCC2C(=O)O)c1 (stereo not given)
    2	4	5	-21	0	i	0	-9
COc1cc(OC)c(Cl)cc1N
    5	-4	·	-10	8	i	-3	-1
CCOC(=O)c1c(C)n(C)c2ccc(OCC(O)CN3CCC(C)CC3)cc12 (stereo not given)
    5	5	0	-5	5	i	0	-12
Cc1ccc(CNC(=O)c2cn(C3CCCC3)c(=O)c3c2c2ccccc2n3C)o1
    ·	·	·	·	1	i	4	1
NC(=O)c1ccsc1NC(=O)COC(=O)Cc1cccc2ccccc12
    -3	-25	·	-18	4	i	13	-1

An excerpt of these results, as tab-separated lines:
SMILES	MT1-MMP act inh	MT1-MMP act inh RFP	Env fusion inh	UUG fidelity	eIF4H FP inh	Rce1 inhib	PABP polyA inh	CSC inhib
Cc1ccc(Nc2c([N+](=O)[O-])c(=O)n(C)c3ccccc23)cc1C	-3	-7	·	-11	-7	i	-4	15
O=C(C[C@@H]1C/C=C\C[C@H](NC(=O)OCC2c3ccccc3-c3ccccc32)C(=O)O[C@H](c2ccccc2)CNC1=O)NCCO	10	-5	-24	-14	·	·	·	2
CCOC(=O)C1=C(O)C(=O)N(c2ccccc2)C1c1cccc([N+](=O)[O-])c1 (stereo not given)	8	-7	0	-9	-6	i	-6	-7
Cc1cccc(OCC(=O)NNC(=O)C2CCCCC2C(=O)O)c1 (stereo not given)	2	4	5	-21	0	i	0	-9

Continued.
Second line of a record: MT1-MMP act inh	MT1-MMP act inh RFP	Env fusion inh	UUG fidelity	eIF4H FP inh	Rce1 inhib	PABP polyA inh	CSC inhib
Cc1ccc(C)c(OCCC(=O)OCC(=O)NC(=O)NCc2ccccc2)c1
    2	-4	3	-20	·	i	·	7
Cc1ccnc(NS(=O)(=O)c2ccc(Cl)nc2)c1
    -1	-2	-9	·	-7	i	-16	1
O=C(CN1CCN(c2ccccc2O)CC1)NC(c1ccccc1)c1ccccc1
    -8	-6	-145	-5	6	i	4	1
CC12CCC(=O)N1C(C(=O)OCC(=O)Nc1ccc(Cl)c(Cl)c1)CS2 (stereo not given)
    1	4	10	·	3	i	12	9
O=C(NNC(=O)c1c(F)cccc1F)c1ccccc1-n1cccc1
    -2	-2	5	·	8	i	3	-24
Cc1nc(CSc2nsc(/C=C/N(C)C)c2C#N)cs1
    -46	6	2	·	?	i	11	·
Cc1ccc(Sc2nc(C)cc(C)c2S(C)(=O)=O)cc1
    -1	-1	·	-4	-5	i	-2	3
CCOc1ccc(CCNC(=O)c2cc3sc(Cl)cc3n2C)cc1OCC
    0	-5	-48	-16	-1	i	-6	6
Cc1ccc(C)c(NS(=O)(=O)c2cc(Br)cnc2N)c1
    3	-2	·	-12	-1	i	8	-3
O=C(Nc1ccccc1)N1CCSCC1
    3	8	·	·	-3	i	-9	-16
Cc1ccc(S(=O)(=O)N2CCN(c3cccc(C)c3)CC2)cc1
    -2	-2	-6	-3	-5	i	-2	-7
C[n+]1ccccc1/C=C/c1ccc(F)c(F)c1
    -3	-3	27	-14	·	i	·	-6
Fc1cccc(NC(=S)N2CCc3ccccc32)c1
    -1	-1	0	-17	-6	i	-16	-1
OCCC1CN(Cc2ccc3nsnc3c2)CCN1C1CCCCC1 (stereo not given)
    3	6	4	·	-7	i	-8	7
CC(NC(=O)C1(C)CC1(Br)Br)C(C)(C)C (stereo not given)
    4	-3	12	-21	4	i	-8	-12
O=C(NC1CC1)c1ccc(NC(=O)C2CCC2)cc1
    3	3	7	-10	·	·	·	·
O=C(CSc1nccc(=O)[nH]1)Nc1ccc(S(=O)(=O)N2CCOCC2)cc1
    4	1	·	-15	-6	i	-14	-10
O=C(NCc1ccccc1OC(F)(F)F)C1CCC(=O)N(Cc2cccc(F)c2)C1 (stereo not given)
    1	-1	10	10	-1	i	-5	-8
Cc1ccc2nc(NC(=O)c3ccc(S(=O)(=O)N4CCCc5ccccc54)cc3)sc2c1
    5	-7	22	-1	-8	i	-8	10
Cc1cc(C)cc(N2C(=O)CC(Sc3ccccc3C(=O)O)C2=O)c1 (stereo not given)
    4	-1	10	·	-4	i	4	13

Some values from the entries so far.
Cc1ccc(S(=O)(=O)N2CCN(c3cccc(C)c3)CC2)cc1 in Env fusion inh has -6
O=C(CSc1nccc(=O)[nH]1)Nc1ccc(S(=O)(=O)N2CCOCC2)cc1 in MT1-MMP act inh RFP has 1

New compounds follow
Second line of a record: MT1-MMP act inh	MT1-MMP act inh RFP	Env fusion inh	UUG fidelity	eIF4H FP inh	Rce1 inhib	PABP polyA inh	CSC inhib
Cc1ccnc(SCc2cc(=O)c(OC(=O)c3cc([N+](=O)[O-])ccc3Cl)co2)n1
    2	5	8	·	0	i	-2	·
COc1ccc(OC)c(NC(=O)CN2C(=O)CSc3ccc(S(=O)(=O)N4CCCC4)cc32)c1
    -11	-3	6	-11	·	i	·	2
Cc1ccc(C(=O)C[n+]2cccc(C(N)=O)c2)cc1
    2	1	-36	-10	-2	i	11	0
CNC(=O)CSc1cnc2ccccc2n1
    0	1	2	·	-2	i	8	-10
CCC(C)(C)NC(=O)CCCSc1nc2ccccc2[nH]1
    0	-1	1	-6	-4	i	-7	4
Cc1ccc(CN2CCN(C/C=C/c3ccc(F)cc3)CC2CCO)o1 (stereo not given)
    -4	0	3	-13	14	i	10	-2
CCOC(=O)c1ccc(S(=O)(=O)NCC(C)(C)N2CCOCC2)cc1
    3	1	7	·	-6	i	7	·
CO/N=C/c1ccc(N2CCN(C(=O)c3ccc(C)cc3)CC2)c([N+](=O)[O-])c1
    6	-1	19	0	-2	i	8	-7
S=C(N/N=C/c1ccccc1)N1CCOCC1
    5	6	-3	-22	10	i	-8	-11
O=C(CC(c1ccccc1)c1ccccc1O)NCCN1CCOCC1 (stereo not given)
    1	9	-7	·	-1	i	4	-11
CC(=O)Nc1ccc(NC(=O)/C(Cl)=C/c2ccccc2)cc1
    1	1	·	-7	-1	i	-8	-7
CC(=O)c1cccc(NC(=O)C2CCN(S(=O)(=O)c3cccs3)CC2)c1
    3	-1	-7	-11	1	i	-2	-4
O=C(c1ccc(N2CCNCC2)cc1)c1cccnc1
    0	-2	·	-13	-2	i	0	49
CCCCN1C(=O)/C(=C(/C#N)C(N)=O)c2ccccc21
    1	7	-20	1	13	i	-1	13
O=C(CSc1nc2c(c(=O)[nH]1)CCC2)Nc1cccc(F)c1
    -3	-1	4	-14	-6	i	-2	5
COc1ccc(C(=O)NC2CCCCCC2)cc1S(=O)(=O)N1CCOCC1
    3	2	-266	-5	-7	i	-6	2
Cc1cccc(NC(=O)[C@@H](NC(=O)[C@@H]2Cc3ccccc3CN2)C(C)C)c1
    2	5	4	-11	-18	i	-10	3
CC1CN/C(=C\C(=O)c2ccc(Cl)cc2)C(=O)N1 (stereo not given)
    ·	·	-163	-46	-5	i	5	21
CCOC(=O)C1=CCC(c2ccc(F)cc2)N(S(=O)(=O)c2ccc(C)cc2)C1 (stereo not given)
    -2	-8	3	-6	·	·	·	·
O=C(c1ccc(Cl)c(S(=O)(=O)Nc2ccc(F)cc2)c1)N1CCN(c2ccccn2)CC1
    1	-4	-10	-11	7	i	-13	-4

Ordered by count of non-hydrogen atoms (lowest first): part of the list above.
Second line of a record: MT1-MMP act inh	MT1-MMP act inh RFP	Env fusion inh	UUG fidelity	eIF4H FP inh	Rce1 inhib	PABP polyA inh	CSC inhib
CC1CN/C(=C\C(=O)c2ccc(Cl)cc2)C(=O)N1 (stereo not given)
    ·	·	-163	-46	-5	i	5	21
O=C(c1ccc(N2CCNCC2)cc1)c1cccnc1
    0	-2	·	-13	-2	i	0	49
O=C(CSc1nc2c(c(=O)[nH]1)CCC2)Nc1cccc(F)c1
    -3	-1	4	-14	-6	i	-2	5
Cc1cccc(NC(=O)[C@@H](NC(=O)[C@@H]2Cc3ccccc3CN2)C(C)C)c1
    2	5	4	-11	-18	i	-10	3

More compounds
Second line of a record: MT1-MMP act inh	MT1-MMP act inh RFP	Env fusion inh	UUG fidelity	eIF4H FP inh	Rce1 inhib	PABP polyA inh	CSC inhib
O=c1cc(-c2ccc(OCc3ccccc3)cc2)oc2cc(OCc3ccccc3)cc(OCc3ccccc3)c12
    -4	-3	-5	-6	·	·	·	·
Cc1ccc([N+](=O)[O-])cc1S(=O)(=O)Nc1ccc(C(=O)NCc2ccccn2)cc1
    4	4	·	·	·	i	·	1
O=C(O)/C=C1\NC(=O)c2ccccc21
    -3	1	·	-4	-10	i	-5	-10
CCOc1ncccc1C(=O)N1CCN(C(c2ccccc2)c2ccccc2)CC1
    -11	-10	28	·	0	i	-3	3
CC(SC1=NCCN1S(=O)(=O)c1ccccc1)c1ccccc1 (stereo not given)
    -3	-5	·	-10	-4	i	-16	3
C/C(=N\N=C1\NC(=O)C(CC(=O)Nc2ccc(C)c(Cl)c2)S1)C(C)C (stereo not given)
    3	4	10	·	0	i	5	6
S=C(Nc1ccccc1)N1CCN(C/C=C/c2ccccc2)CC1
    0	-5	-4	·	-5	i	-3	-11

Not all compounds are listed; rates above refer to the full screens.
